Screens (PubChem BioAssay)
CBX7 AlphaScr = blocks human CBX7 binding to H3K27me3 peptide | normalised signal (fraction of DMSO) (test concentration not listed) | AlphaScreen His6-CBX7 / biotin-H3K27me3 peptide binding; hits give low values | 66,000 compounds, 1.1% hits | O95931 | AID 1224903; in the data active means normalised signal below about 0.5;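 further: 100 nL library stock added to about 20 µL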
Target sequence (O95931 whole entry, looked up): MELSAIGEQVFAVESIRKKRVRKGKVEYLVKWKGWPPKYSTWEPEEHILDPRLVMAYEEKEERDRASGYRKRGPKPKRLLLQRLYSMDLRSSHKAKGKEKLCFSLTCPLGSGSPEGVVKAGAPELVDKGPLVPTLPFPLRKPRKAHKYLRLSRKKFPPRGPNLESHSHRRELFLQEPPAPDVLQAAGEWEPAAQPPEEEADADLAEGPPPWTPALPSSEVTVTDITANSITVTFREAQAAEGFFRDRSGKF
CBX7 AlphaScr z-score = further read-out of CBX7 AlphaScr, marked with its call; z-score; measured here: z-score of CBX7 signal; some inactives read as strong as hits; reference of the scale not given here;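 same signal on another scale; lower means less binding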
Numbers without * were called inactive.

Structure	CBX7 AlphaScr	CBX7 AlphaScr z-score
COc1ccc(Nc2cc(C(=O)NC3CCCCC3C)c3ccccc3n2)cc1 (stereo not drawn)	1	0.19
CCN1CCN(c2cc(C)c3cc(NC(=O)C(C)Oc4ccc(Cl)cc4Cl)ccc3n2)CC1 (stereo not drawn)	0.9	-0.68
Cc1nc2nc(-c3ccc(Cl)cc3)cn2nc1C	1.7	1.4
CN1CCN(C2CC(=O)N(c3ccc(Br)cc3)C2=O)CC1 (stereo not drawn)	1	0.67
Cc1ccc(S(=O)(=O)C2(C(=O)N3CCCCCC3)CC2)cc1	1.2	2.2
COc1ccc(NC(=O)CCc2c(C)nc3cc(-c4ccccc4OC)nn3c2C)cc1Cl	1.1	2.5
COc1ccc(CCNC(=O)CN2CCN(Cc3ccccc3F)C2=O)cc1OC	0.88	-1.7
Cc1cc(C)nc(Nc2n[nH]c(-c3ccc(Cl)cc3)n2)n1	0.92	-1.6
COC(=O)c1c(C)[nH]c(C)c1-c1ccc(Cl)cc1	0.85	-3
Cc1c(C(=O)N2CCC(C)CC2)oc2ccc(S(=O)(=O)N3CCCCCC3)cc12	0.73	-4.9
Cc1ccc(-c2cc(C(=O)NCCCN3CCCCC3)c3ccccc3n2)cc1C	1	0.8
CCOc1ccc(C(=O)Nc2ccc3oc(-c4ccccc4F)nc3c2)cc1	1.1	0.63
Nc1nonc1-c1noc(C2CCCCC2)n1	0.95	-1.5
COC(=O)c1ccccc1NC(=O)CCc1nc(-c2ccc(C)cc2)no1	1.1	2.5
O=C(Nc1c(C(=O)N2CCCCC2)sc2c1CCCC2)c1ccccc1	0.93	-1.2
N#Cc1nc(COc2ccc(Cl)cc2)oc1N1CCCC1	0.73	-12
Cc1cccc(NC2=NS(=O)(=O)c3ccccc32)c1	1	0.48
Cc1cc(C)c(C#N)c(Nc2cccc(Cl)c2)n1	1	0.86
Cc1c(Cl)cccc1-n1ncnc1-c1cccc(Br)c1	1.2	3
Cc1cccc(C)c1Nc1c(-c2cccnc2)nc2sccn12	1.1	0.073
Clc1ccc(-c2nc(N3CCCCC3)nc3ccccc23)cc1	2.7	71
O=C1c2ccccc2C(Nc2ccccc2C(F)(F)F)N1Cc1ccccc1Cl (stereo not drawn)	0.96	-0.11
CCCCCn1c(=O)[nH]c2cc(C(=O)NC3CC3)ccc2c1=O	1.1	1.1
COc1cccc(NC(=O)C2(S(=O)(=O)c3ccc(Cl)cc3)CC2)c1	1	0.32
Cc1ccc(C(C(=O)NC2CCCC2)N(C)c2ccccc2)cc1 (stereo not drawn)	1	1.3
Cc1ccccc1Nc1c(-c2cccc(Cl)c2)nc2ccccn12	1.1	0.62
O=C(Cn1ncc2ccsc2c1=O)N1CCc2ccccc21	0.94	-2.1
COc1ccc(C(=O)Nc2cc(-c3nc4ncccc4o3)ccc2C)cc1Br	0.93	-0.74
CC(=O)Nc1ccc(-c2nnc3n2CCCCC3)cc1	1.1	1.1
CC1CCCCN1S(=O)(=O)c1ccc2[nH]c(=O)cc(C(=O)NC3CCCC3)c2c1 (stereo not drawn)	0.94	-1.3
COc1cccc2c(Nc3ccc(C)c(Cl)c3)cc(C)nc12	0.71	-1
CC(C)CCNC(=O)c1ccc2c(c1)N(Cc1ccccc1F)C(=O)CS2	1.2	2.6
O=c1[nH]c2ccc(S(=O)(=O)NCc3ccc4c(c3)OCO4)cc2[nH]1	1	0.08
Cc1ccc(CNC(=O)c2csc3c2CCCCC3)cc1	0.85	-0.58
CCCOc1nnc(-c2ccc(C)c(S(=O)(=O)N(C)C)c2)c2ccccc12	1	0.0034
COc1ccc(S(=O)(=O)CCC(=O)N2CCNc3ccccc3C2)cc1	1	0.74
O=C(CSc1nnc(COc2cccc3cccnc23)n1-c1ccccc1)c1ccc(Cl)cc1	0.66	-0.4
CC(=O)N1CCN2C(=O)C1CCCC(=O)c1cc(C3CCCCC3)ccc12 (stereo not drawn)	1	1.3
CCOC(=O)c1cnc2ccccc2c1Nc1cccc(OC)c1	0.85	-1.7
O=C(CSc1nnc(Cc2cc(=O)[nH]c(=O)[nH]2)n1-c1ccc(Cl)cc1)N1CCCC1	0.99	-0.35
COc1ccc(-n2nnnc2C2(Nc3cccc(Cl)c3)CCCCC2)cc1	0.82	-1.1
CCOc1cccc(C2NC(=O)c3c(sc4c3CCN(C)C4)N2)c1O (stereo not drawn)	0.71	-3.1
Cc1cc(=O)n2nc(N3CCCC(C(=O)NCc4ccccc4Br)C3)sc2n1 (stereo not drawn)	1.3	2.5
COc1ccc(OC)c(NC(=O)Cn2cc(S(=O)(=O)c3ccccc3)c(=O)c3cc(F)ccc32)c1	0.98	-0.57
C=CCNC(=O)c1cc(-c2ccc(OC)cc2)on1	1.3	1.8
CCN1CCN(C(=O)Cn2nc(Cc3ccncc3)c3ccccc3c2=O)CC1	1	0.28
O=C(Nc1cccc(Cl)c1)Nc1cc(C(F)(F)F)ccc1N1CCOCC1	1.1	0.5
Cc1ccc2[nH]c(C)c(CCNC(=O)c3cc(F)c(F)cc3Cl)c2c1	1	0.57
CCc1cc(C(=O)Cc2ccc3ccccc3n2)c(O)cc1OC	0.34*	-2.8*
COc1ccc(CCNc2nc(C)nc3sc(C)c(C)c23)cc1OC	1	2.2
COc1cc(OC)cc(C(=O)Nc2nc3c(s2)Cc2cc(OC)ccc2-3)c1	1.1	1.8
COc1ccc(NC(=O)c2cnn3c2NC(c2cccs2)CC3C(F)(F)F)cc1OC (stereo not drawn)	1	0.037
OCc1nc2ccccc2n1CCOc1cccc(Cl)c1	0.98	-0.14
CCOc1ccc(-n2ccnc2SCC(=O)NCCc2ccccc2)cc1	0.68	-0.43
COc1ccc(CC(=O)NC(C)C(c2cccs2)N2CCOCC2)cc1OC (stereo not drawn)	0.99	-0.3
CCOc1c(OC)cccc1C1CC(=O)Nc2cc3c(cc21)OCO3 (stereo not drawn)	0.8	-2.6

Part of the list above in order of heavy-atom count, largest number first:
Structure	CBX7 AlphaScr	CBX7 AlphaScr z-score
COc1ccc(NC(=O)c2cnn3c2NC(c2cccs2)CC3C(F)(F)F)cc1OC (stereo not drawn)	1	0.037
COc1cc(OC)cc(C(=O)Nc2nc3c(s2)Cc2cc(OC)ccc2-3)c1	1.1	1.8
CCOc1c(OC)cccc1C1CC(=O)Nc2cc3c(cc21)OCO3 (stereo not drawn)	0.8	-2.6

The list goes on:
Structure	CBX7 AlphaScr	CBX7 AlphaScr z-score
COCCCNC(=O)CSc1nc(-c2ccccc2)[nH]c1-c1ccc(F)cc1	0.91	-1.5
CCCCCCOc1ccc(N2C(=O)CC(N3CCN(Cc4ccccc4)CC3)C2=O)cc1 (stereo not drawn)	1.1	0.81
Cc1cc(Nc2cccc(O)c2)n2ncnc2n1	1	1.4
CC(C)NC(=O)C1=CCN(S(=O)(=O)c2ccc(F)cc2)CC1	0.97	-1.2
NC(=O)C1CC(=O)N(c2ccc(OCC(=O)NCc3ccccc3)cc2)C1 (stereo not drawn)	1.1	1
CC1(C)CC(=O)C2=C(C1)Nc1ccccc1NC2c1ccc(Cl)cc1 (stereo not drawn)	1	0.14
COc1ccc2cc(CCNC(=O)Cc3ccc(F)cc3)c(=O)[nH]c2c1	1	0.18
Cc1cc2nc(Nc3nc4c(c(=O)[nH]3)CCC4)nc(C)c2cc1C	0.94	-1.8
CCOc1ccc2c(c1)c(=O)c(S(=O)(=O)c1ccccc1)cn2Cc1cccc(F)c1	0.87	-2.5
COc1cc2c(cc1OC)C(C(=O)NCc1ccc(F)cc1)C1c3ccccc3CCN1C2=O (stereo not drawn)	1	0.48
CCCc1noc(-c2c(-c3ccccc3Cl)noc2C)n1	1.3	8.6
O=C(CCCN1C(=O)c2cccnc2C1=O)Nc1c(F)cccc1F	0.72	-4.8
O=S(=O)(c1ccccc1)c1nc(-c2ccc(Br)cc2)oc1N1CCCCCC1	0.72	-7.3
S=c1[nH]nc(COc2cccc3cccnc23)n1-c1ccccc1	0.99	-0.25
COc1ccc(S(=O)(=O)N2Cc3ccccc3CC2C(=O)N2CCCCC2)cc1 (stereo not drawn)	1.1	1.1
O=C(NCCc1ccc(Cl)cc1)C1CCC(=O)N1C1CCCCC1 (stereo not drawn)	1	0.26

Next part
SMILES | CBX7 AlphaScr | CBX7 AlphaScr z-score
COC(=O)c1nc(-c2ccccc2)oc1N1CCCCC1 | 1.1 | 1.3
CCOc1ccccc1C(=O)Nc1sc2c(c1C(=O)OC(C)C)CCCC2 | 1.4 | 0.88
O=C(Cn1ncc2c1-c1ccccc1OC2)Nc1cccc(C(F)(F)F)c1 | 0.89 | -1.6
Cc1cccc(Nc2nc(-c3cccs3)cs2)c1 | 0.93 | -1.1
COc1ccc(Nc2c(-c3c[nH]c4ccccc34)nc3ccc(C)cn23)cc1 | 0.58 | -12
CCCCCOc1ccc(C(=O)Nc2ccc(-c3nc4ccccc4[nH]3)cc2)cc1 | 0.89 | -0.81
COc1ccc(Cl)cc1C(=O)Nc1cc(-c2nc3ccc(C)cc3o2)ccc1C | 1.2 | 0.54
Cc1ccc2[nH]c3c(c2c1)CCCC3Nc1ccccc1 (stereo not drawn) | 0.71 | -1.9
CCN(CC)CCNC(=O)C1c2cc(OC)c(OC)cc2C(=O)N2CCc3ccccc3C12 (stereo not drawn) | 1 | 0.44
CN(CCC#N)C(=O)c1ccc2c(=O)n3c(nc2c1)CCCCC3 | 1 | 0.11
CCOc1ccc(-c2cc(C(=O)NCCCN3CCCCC3C)c3ccccc3n2)cc1 (stereo not drawn) | 1.1 | 1.2
COc1ccc(Cl)cc1Nc1nc(-c2sc(NC(C)=O)nc2C)cs1 | 1 | 0.34
COc1ccc(Nc2nc(-c3ccccc3F)nc3ccccc23)cc1OC | 0.77 | -6.2
Cc1cnc(NC(=O)CSc2nnc(-c3ccccc3)o2)s1 | 0.93 | -1.6
CC1(C)CC(=O)c2cc(C(=O)Nc3ccccc3C(N)=O)c(=O)n(-c3ccc(Cl)cc3)c2C1 | 1 | 2
CCOC(=O)c1sc2nc(C)nc(NCc3ccc(Cl)cc3)c2c1C | 1.1 | 3.9
COc1ccc(Nc2cc(C(=O)NCCCN3CCN(C)CC3)c3ccccc3n2)cc1 | 1 | 0.021
O=C(CCCN1Cc2ccccc2C1)Nc1c2c(nc3c1CCC3)CCCC2 | 1 | 1.3
CCCN(C(=O)CCc1nc(-c2ccc(C)cc2)no1)c1cccc(Cl)c1 | 1.2 | 2.3
Cc1cc(Nc2ccccc2)nc(N2CCOCC2)n1 | 1 | 0.56
COc1ccc(CNC(=O)C2C3C(=O)N(Cc4ccccc4)CC34C=CC2(C)O4)cc1 (stereo not drawn) | 1.1 | 0.17
CCOc1ccccc1/C=c1/sc2nc3cc(C)c(C)cc3n2c1=O | 1.1 | 3.1
CC(C)c1ccccc1NC(=O)CSc1nnc(COc2ccccc2)o1 | 1.1 | 1.4
Cc1ccc2nc(Oc3ccccc3)nc(-c3ccccc3)c2c1 | 1.2 | 3
COc1ccc(N2Cc3cccc(C(=O)NCCc4cccc(C)c4)c3C2=O)cc1 | 0.96 | -1.1
N#Cc1nc(COc2ccc(F)cc2)oc1NCCCn1ccnc1 | 0.95 | -0.063
COc1cc(OC)cc(-c2cc3nc(C)c(CCC(=O)NC(C)c4ccccc4)c(C)n3n2)c1 (stereo not drawn) | 1 | -0.096
Cc1ccc(S(=O)(=O)CCc2nnc(NC(=O)c3ccc(Br)cc3)s2)cc1C | 1.1 | 1.1
Cc1ccc(-c2noc(CCC(=O)N(C)c3ccc(C)c(C)c3)n2)cc1 | 1.1 | 1.9
COc1ccc(NC(=O)c2c[nH]n3c(=O)cc(C4CCN(C(=O)OC(C)(C)C)CC4)nc23)cc1Cl | 0.96 | -1.1
C=CCOc1ccc(C(=O)Nc2c(C(=O)c3ccc(Cl)cc3)oc3ccccc23)cc1 | 0.97 | -0.44
Cn1c(=O)c(=O)n(C)c2cc(S(=O)(=O)Nc3ccc(Cl)c(C(F)(F)F)c3)ccc21 | 1.3 | 2
O=C(C1CCC1)N1CCc2cc(S(=O)(=O)NCCCN3CCCC3)ccc21 | 1 | 0.78
Cc1ccc(C)c(NC(=O)CSc2nnnn2-c2cccc(O)c2)c1 | 0.94 | -1
COc1ccc(-c2nc3cc(C)ccn3c2Nc2ccc3c(c2)OCO3)cc1 | 0.73 | -4.5
COc1ccc(S(=O)(=O)n2c(SCC(=O)Nc3ccc(C(C)C)cc3)nc3ccccc32)cc1 | 0.93 | -0.073
COC(=O)c1cc2ccsc2n1Cc1nc(-c2ccccc2F)oc1C | 0.94 | -1.8
CCc1ccc(C(=O)Nc2ccc(Br)cn2)cc1 | 1.1 | 2.6
CCC(C)NC(=O)C1CCN(c2nc3ccc(OC)cc3s2)CC1 (stereo not drawn) | 0.82 | -1.9
O=C(Nc1ccccc1)c1cc(S(=O)(=O)Nc2ccc(F)cc2)cs1 | 1.1 | 2
Cc1ccc(CCN2C(=O)c3ccccc3C2C(=O)NCCCN2C(C)CCCC2C)cc1 (stereo not drawn) | 1 | -0.036
COc1ccccc1N1CCN(c2ncc(C(=O)N(C)c3ccc(F)cc3)c3ccccc23)CC1 | 0.7 | -1.9
COc1cccc(CNC(=O)Cc2ccc(NC3=NC4CS(=O)(=O)CC4S3)cc2)c1 (stereo not drawn) | 0.99 | -0.28

Single entries from above:
Entry for `CCc1ccc(C(=O)Nc2ccc(Br)cn2)cc1` in CBX7 AlphaScr: 1.1
Entry for `COc1ccccc1N1CCN(c2ncc(C(=O)N(C)c3ccc(F)cc3)c3ccccc23)CC1` in CBX7 AlphaScr z-score: -1.9
Entry for `COC(=O)c1cc2ccsc2n1Cc1nc(-c2ccccc2F)oc1C` in CBX7 AlphaScr: 0.94
Entry for `Cc1ccc(CCN2C(=O)c3ccccc3C2C(=O)NCCCN2C(C)CCCC2C)cc1` (stereo not drawn) in CBX7 AlphaScr z-score: -0.036
Entry for `CCC(C)NC(=O)C1CCN(c2nc3ccc(OC)cc3s2)CC1` (stereo not drawn) in CBX7 AlphaScr z-score: -1.9
Entry for `COc1cccc(CNC(=O)Cc2ccc(NC3=NC4CS(=O)(=O)CC4S3)cc2)c1` (stereo not drawn) in CBX7 AlphaScr: 0.99
Entry for `O=C(Nc1ccccc1)c1cc(S(=O)(=O)Nc2ccc(F)cc2)cs1` in CBX7 AlphaScr z-score: 2

An excerpt (hit frequency here may not be typical).
